Vaccinia stage: blocks a specific stage of Vaccinia orthopoxvirus infection | Vaccinia-infected cells, mCherry/Venus stage reporter fluorescence; stronger effect = lower value; some inactives read as strong as hits | activity change (mCherry), % (test concentration not listed) | hit rate 0.01% among 89,000;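 active means mCherry past -33% and 40 or more points under the early reporter, replicates agreeing; inconclusive means past -33% without that gap or agreement; tested in A549 cells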;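 further: scaled between vehicle wells and reference inhibitor wells; 23 nL library stock went into each well; one replicate is shown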
Vaccinia stage Venus: further read-out of Vaccinia stage, marked with its call; activity change (Venus), %; measured here: Venus reporter, other viral stage;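 negative = less Venus signal; first of two replicates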
Numbers without * were called inactive. Some of the compounds tested; rates above refer to the full screens.

Screening Cc1noc(C)c1S(=O)(=O)N(C)C[C@@H]1OCCCC[C@@H](C)Oc2ccc(NC(=O)Nc3cccc4ccccc34)cc2C(=O)N([C@H](C)CO)C[C@H]1C returned Vaccinia stage -7.8 and Vaccinia stage Venus -0.1.
Screening Cc1cc(C(=O)Nc2ccc3c(c2)C(=O)N(C)[C@@H]2CC[C@@H](CC(=O)N[C@H](C)c4ccccc4)O[C@H]2CO3)no1 returned Vaccinia stage -12.9 and Vaccinia stage Venus -6.6.
COc1ccc(NC(=O)Nc2ccc3c(c2)[C@@H]2C[C@@H](CC(=O)NCC(F)(F)F)O[C@@H](CO)[C@@H]2O3)cc1 was read as Vaccinia stage 1.2 and Vaccinia stage Venus 6.6.
`C[C@H](CO)N1C[C@H](C)[C@H](CN(C)C(=O)Nc2ccc3c(c2)OCO3)Oc2ccc(NC(=O)CCCCCC(=O)Nc3ccccc3N)cc2CC1=O` gave Vaccinia stage 8.5 and Vaccinia stage Venus 2.6.
`COc1ccc(CN(C)C[C@@H]2Oc3c(NC(=O)NC(C)C)cccc3C(=O)N([C@H](C)CO)C[C@@H]2C)cc1` gave Vaccinia stage -10.2 and Vaccinia stage Venus -12.6.
Screening Cc1ccc(S(=O)(=O)Nc2ccc3c(c2)CC(=O)N([C@@H](C)CO)C[C@H](C)[C@@H](CN(C)C(=O)Nc2ccc4c(c2)OCO4)O3)cc1 returned Vaccinia stage 14.1 and Vaccinia stage Venus 11.1.
C[C@@H]1CCCCO[C@H](CN(C)C(=O)C2CCCCC2)[C@@H](C)CN([C@H](C)CO)C(=O)c2cc(NC(=O)CCCCCC(=O)Nc3ccccc3N)ccc2O1 was read as Vaccinia stage 19.9 and Vaccinia stage Venus -2.1.
C[C@@H]1CN([C@@H](C)CO)C(=O)c2cccc(NC(=O)C3CC3)c2O[C@@H]1CN(C)C(=O)NC1CCCCC1 was read as Vaccinia stage 11.7 and Vaccinia stage Venus 9.0.
For Cc1noc(C)c1NC(=O)N[C@H]1CC[C@H](CC(=O)NCc2ccc(Cl)c(Cl)c2)O[C@@H]1CO the results were Vaccinia stage 2.5 and Vaccinia stage Venus 7.6.
C/C=C/c1ccc([C@@H]2[C@@H](CO)N(C(=O)CN(C)C)C23CN(C(=O)C2CCC2)C3)cc1 was read as Vaccinia stage -6.3 and Vaccinia stage Venus 1.4.
Screening COc1ccc(-c2cnc3c(c2)C(=O)N([C@H](C)CO)C[C@@H](C)[C@H](CN(C)C(=O)Cc2ccccc2)O3)cc1 returned Vaccinia stage -13.1 and Vaccinia stage Venus -22.3.
For CO[C@@H]1CN(C)C(=O)c2ccc(NC(C)=O)cc2OC[C@H](C)N(C(=O)c2ccccn2)C[C@H]1C the results were Vaccinia stage 14.8 and Vaccinia stage Venus 0.4.
Screening C[C@H](CO)N1C[C@H](C)[C@H](CN(C)CC2CC2)OCc2ccccc2-c2c(n(C)c3ccccc23)C1=O returned Vaccinia stage -31.6 and Vaccinia stage Venus -35.8.
Screening C/C=C/c1ccc([C@@H]2[C@H](CO)N(C(C)=O)[C@H]2CNC(=O)c2ccncc2)cc1 returned Vaccinia stage -5.1 and Vaccinia stage Venus 3.4.
COc1ccc2c3c(n(C)c2c1)[C@@H](CO)N(C(=O)c1ccccn1)CC31CCN(C(=O)c2ccccn2)CC1 was read as Vaccinia stage -7.1 and Vaccinia stage Venus -10.9.
For COc1ccc(NC(=O)Nc2ccc3c(c2)C(=O)N([C@H](C)CO)C[C@H](C)[C@@H](CN(C)C(=O)Nc2ccc4c(c2)OCO4)OCCCC[C@@H](C)O3)cc1 the results were Vaccinia stage 9.1 and Vaccinia stage Venus -2.6.
C[C@@H]1CCCCO[C@H](CN(C)C(=O)c2ccncc2)[C@H](C)CN([C@@H](C)CO)C(=O)c2cc(NC(=O)c3ccncc3)ccc2O1 was read as Vaccinia stage 11.7 and Vaccinia stage Venus -4.4.
`CC(C)CC#Cc1ccc2c(c1)O[C@H](CN(C)C(=O)c1ccccc1)[C@@H](C)CN([C@H](C)CO)S2(=O)=O` gave Vaccinia stage inconclusive.
COc1ccc2c3c(n(C)c2c1)[C@@H](CO)N(C(=O)C1CCCC1)CC31CCN(Cc2cccc(F)c2)CC1 was read as Vaccinia stage inconclusive.
Screening COCC#Cc1ccc2c(c1)O[C@@H](CN(C)C(=O)Nc1ccccc1F)[C@H](C)CN([C@H](C)CO)S2(=O)=O returned Vaccinia stage 9.9 and Vaccinia stage Venus 11.6.
For Cc1ccc(S(=O)(=O)N[C@H]2C=C[C@@H](CC(=O)NCc3ccccc3F)O[C@@H]2CO)cc1 the results were Vaccinia stage -9.4 and Vaccinia stage Venus -8.6.
For CNC(=O)C[C@@H]1CC[C@@H]2[C@@H](COc3ccc(NC(=O)Nc4ccc(F)cc4)cc3C(=O)N2C)O1 the results were Vaccinia stage 6.8 and Vaccinia stage Venus 4.1.
Screening Cc1cccc(-c2ccc([C@H]3[C@H]4CN(C(=O)NC5CCCCC5)CC(=O)N4[C@H]3CO)cc2)c1 returned Vaccinia stage inconclusive.
Screening CC(C)C#Cc1ccc2c(c1)O[C@@H](CN(C)C(=O)c1cnccn1)[C@H](C)CN([C@H](C)CO)S2(=O)=O returned Vaccinia stage 6.5 and Vaccinia stage Venus 4.0.
N#C[C@@H]1[C@@H](c2ccccc2C2=CCCC2)[C@H](CO)N1C(=O)Cc1ccncc1 was read as Vaccinia stage 4.1 and Vaccinia stage Venus 2.3.
For CN(C)CC#Cc1ccc([C@@H]2[C@@H](CO)N3C(=O)CN(C(=O)c4cccnc4)C[C@H]23)cc1 the results were Vaccinia stage 13.0 and Vaccinia stage Venus 7.2.
For COc1ccccc1-c1cn(CC[C@@H]2CC[C@@H](NS(=O)(=O)c3ccccc3C)[C@@H](CO)O2)nn1 the results were Vaccinia stage -20.1 and Vaccinia stage Venus -11.6.
For COC(=O)C[C@H]1C[C@H]2c3cc(NC(=O)Nc4ccccc4F)ccc3O[C@H]2[C@H](CO)O1 the results were Vaccinia stage 3.7 and Vaccinia stage Venus 11.1.
Cc1noc(C)c1NC(=O)N(C)C[C@H]1Oc2ccc(N(C)C)cc2C(=O)N([C@H](C)CO)C[C@@H]1C was read as Vaccinia stage 4.2 and Vaccinia stage Venus 5.9.
`COc1ccc(-c2ccc([C@H]3[C@H](CO)N4C(=O)CN(C(=O)c5ccccn5)C[C@@H]34)cc2)cc1` gave Vaccinia stage 29.9 and Vaccinia stage Venus 23.2.
For C[C@@H]1CN([C@H](C)CO)C(=O)c2cc(NS(=O)(=O)c3ccccc3)ccc2O[C@@H](C)CCCCO[C@H]1CN(C)C(=O)NC1CCCCC1 the results were Vaccinia stage 2.3 and Vaccinia stage Venus -6.3.
COc1ccccc1S(=O)(=O)N[C@H]1CC[C@@H](CCn2cc(C3CCCCC3)nn2)O[C@H]1CO was read as Vaccinia stage 4.0 and Vaccinia stage Venus 15.9.
Screening O=C1CN(S(=O)(=O)c2cccc(F)c2)C[C@H]2[C@H](c3ccc(C4=CCCC4)cc3)[C@@H](CO)N12 returned Vaccinia stage -15.4 and Vaccinia stage Venus -12.4.
O=C(Nc1cccc(F)c1)N1CC(=O)N2[C@@H](CO)[C@@H](c3ccc(-c4ccc(F)cc4)cc3)[C@@H]2C1 was read as Vaccinia stage inconclusive.
O=C(C[C@@H]1CC[C@H]2[C@@H](COC[C@@H](O)CN2C(=O)c2ccncc2)O1)NCc1ccc(-c2ccccc2)cc1 was read as Vaccinia stage -0.4 and Vaccinia stage Venus 2.3.
Screening CC(C)NC(=O)Nc1ccc2c(c1)C(=O)N([C@H](C)CO)C[C@H](C)[C@H](CN(C)C(=O)CCC(F)(F)F)OCCCC[C@H](C)O2 returned Vaccinia stage 18.7 and Vaccinia stage Venus 5.8.
For C[C@@H]1CN([C@@H](C)CO)C(=O)c2cc(NC(=O)NC3CCCCC3)ccc2O[C@@H](C)CCCCO[C@@H]1CN(C)C(=O)Nc1ccccc1 the results were Vaccinia stage 16.0 and Vaccinia stage Venus 2.9.
For COc1ccc(S(=O)(=O)N(C)C[C@@H]2Oc3ccc(NS(C)(=O)=O)cc3CC(=O)N([C@H](C)CO)C[C@@H]2C)cc1 the results were Vaccinia stage -12.9 and Vaccinia stage Venus -18.6.
Screening O=C(Nc1ccccc1Cl)N1C[C@H]2[C@@H](c3ccccc31)[C@@H](CO)N2C(=O)c1cccnc1 returned Vaccinia stage 6.5 and Vaccinia stage Venus 2.7.
For C[C@H]1CN([C@@H](C)CO)C(=O)c2cccc(NC(=O)C3CCCCC3)c2O[C@@H]1CN(C)S(=O)(=O)c1ccc(Cl)cc1 the results were Vaccinia stage -12.7 and Vaccinia stage Venus -10.8.
`CCCNC(=O)N1[C@H](C#N)[C@@H](c2ccc(/C=C/c3ccccc3)cc2)[C@H]1CO` gave Vaccinia stage 14.6 and Vaccinia stage Venus 4.8.
O=C(Nc1ccccc1F)N1C[C@@H]2[C@H](c3ccccc31)[C@H](CO)N2C(=O)c1ccccn1 was read as Vaccinia stage 14.4 and Vaccinia stage Venus 19.7.
`CN(C)CC(=O)N1[C@H](CO)[C@H](c2ccccc2-c2ccccc2F)[C@@H]1C#N` gave Vaccinia stage 4.8 and Vaccinia stage Venus -3.2.
`Cc1noc(C)c1NC(=O)Nc1cccc2c1O[C@@H](CN(C)CC1CCCCC1)[C@H](C)CN([C@@H](C)CO)C2=O` gave Vaccinia stage 7.5 and Vaccinia stage Venus 0.4.
For COCC(=O)N(C)C[C@H]1Oc2ncc(-c3cccc(OC)c3)cc2C(=O)N([C@@H](C)CO)C[C@@H]1C the results were Vaccinia stage 26.9 and Vaccinia stage Venus 16.4.
For C[C@@H]1CN([C@H](C)CO)S(=O)(=O)c2ccc(-c3cccc(C#N)c3)cc2O[C@@H]1CN(C)C(=O)c1ccccc1 the results were Vaccinia stage inconclusive.
For COc1cccc(NC(=O)N[C@H]2CC[C@H](CC(=O)NCc3ccncn3)O[C@H]2CO)c1 the results were Vaccinia stage 4.1 and Vaccinia stage Venus 1.6.
For CC(C)CC#Cc1ccc2c(c1)O[C@@H](CN(C)CC1CCCC1)[C@H](C)CN([C@@H](C)CO)S2(=O)=O the results were Vaccinia stage -12.1 and Vaccinia stage Venus -13.3.
`CCS(=O)(=O)NCC[C@H]1CC[C@@H](NC(=O)Cc2ccccn2)[C@H](CO)O1` gave Vaccinia stage 4.0 and Vaccinia stage Venus 10.5.
C[C@@H]1CN([C@@H](C)CO)C(=O)c2cc(C#Cc3ccc(F)cc3)cnc2O[C@@H]1CN(C)C(=O)Nc1ccc(F)cc1 was read as Vaccinia stage -12.7 and Vaccinia stage Venus -15.2.
For COCC(=O)N1[C@@H](C#N)[C@@H](c2ccccc2-c2cccc(OC)c2)[C@@H]1CO the results were Vaccinia stage -5.0 and Vaccinia stage Venus -1.8.
Screening C[C@H]1CN([C@@H](C)CO)C(=O)c2cc(NS(=O)(=O)c3ccc(F)cc3)ccc2O[C@H]1CN(C)Cc1ccc(C(F)(F)F)cc1 returned Vaccinia stage -27.8 and Vaccinia stage Venus -21.8.
CN(C)CC#Cc1ccc([C@H]2[C@@H](CO)N(C(=O)C3CC3)[C@H]2C#N)cc1 was read as Vaccinia stage 11.2 and Vaccinia stage Venus 3.7.
Screening O=C(Nc1ccc(Cl)c(Cl)c1)N[C@H]1CC[C@H](CCNC(=O)c2ccc(F)cc2)O[C@@H]1CO returned Vaccinia stage -17.1 and Vaccinia stage Venus -5.6.
`C[C@@H]1CN([C@@H](C)CO)C(=O)c2ccccc2-c2ccccc2CO[C@@H]1CN(C)S(=O)(=O)c1ccc(Cl)cc1` gave Vaccinia stage -27.4 and Vaccinia stage Venus -28.9.
O=C(C[C@@H]1C[C@H]2c3cc(NC(=O)C4CCOCC4)ccc3O[C@H]2[C@@H](CO)O1)NC1CCCC1 was read as Vaccinia stage 0.7 and Vaccinia stage Venus -2.4.
Screening Cc1noc(C)c1NC(=O)N(C)C[C@H]1Oc2c(NS(=O)(=O)c3ccccc3)cccc2C(=O)N([C@H](C)CO)C[C@H]1C returned Vaccinia stage 21.2 and Vaccinia stage Venus 24.3.
CC(C)NC(=O)N(C)C[C@@H]1Oc2ccc(NC(=O)Nc3ccccc3)cc2C(=O)N([C@H](C)CO)C[C@@H]1C was read as Vaccinia stage 15.7 and Vaccinia stage Venus 5.8.
Screening CCCNC(=O)[C@H]1[C@H](CO)[C@H]2Cn3c(ccc(C4=CCCC4)c3=O)[C@@H]1N2 returned Vaccinia stage 28.4 and Vaccinia stage Venus 13.5.
`CC(C)NC(=O)Nc1ccc2c(c1)C(=O)N([C@H](C)CO)C[C@H](C)[C@@H](CN(C)C(=O)CCC(F)(F)F)OCCCC[C@@H](C)O2` gave Vaccinia stage 23.2 and Vaccinia stage Venus 6.3.
For C[C@H](CO)N1C[C@H](C)[C@H](CN(C)Cc2ccc(-c3ccccc3)cc2)Oc2ccc(NS(C)(=O)=O)cc2C1=O the results were Vaccinia stage inconclusive.
Screening COc1ccccc1C#Cc1ccc2c(c1)[C@H]1[C@H](CCN1S(=O)(=O)c1ccc(C)cc1)[C@@H](CO)N2 returned Vaccinia stage -5.4 and Vaccinia stage Venus 2.5.

5 structures out of the list, ordered by count of non-hydrogen atoms, smallest number first.
`CCCNC(=O)N1[C@H](C#N)[C@@H](c2ccc(/C=C/c3ccccc3)cc2)[C@H]1CO` gave Vaccinia stage 14.6 and Vaccinia stage Venus 4.8.
For COCC(=O)N(C)C[C@H]1Oc2ncc(-c3cccc(OC)c3)cc2C(=O)N([C@@H](C)CO)C[C@@H]1C the results were Vaccinia stage 26.9 and Vaccinia stage Venus 16.4.
CC(C)NC(=O)N(C)C[C@@H]1Oc2ccc(NC(=O)Nc3ccccc3)cc2C(=O)N([C@H](C)CO)C[C@@H]1C was read as Vaccinia stage 15.7 and Vaccinia stage Venus 5.8.
`C[C@@H]1CN([C@@H](C)CO)C(=O)c2ccccc2-c2ccccc2CO[C@@H]1CN(C)S(=O)(=O)c1ccc(Cl)cc1` gave Vaccinia stage -27.4 and Vaccinia stage Venus -28.9.
`Cc1noc(C)c1NC(=O)Nc1cccc2c1O[C@@H](CN(C)CC1CCCCC1)[C@H](C)CN([C@@H](C)CO)C2=O` gave Vaccinia stage 7.5 and Vaccinia stage Venus 0.4.

Compound activity from PubChem.
